# Source: PubChem (National Center for Advancing Translational Sciences (NCATS))
# TRPML1 blocker = blocks the human TRPML1 channel; 0.02% of 390,000 active; Q9GZU1; activity change, negative = inhibition, % (test concentration not listed); TRPML1-inducible cells, Ca2+ dye fluorescence, FDSS; hits give low values; inhibition of EC80 agonist-evoked calcium signal; in the data active means activity change below about -50%; inconclusive means about -30% to -50%; inactive means above about -30%;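 note: stimulus is agonist 54-4 at its EC80 concentration; % is set by controls: 0 for no effect and ±100 for the full control effect; compound concentration not given in the record; the text of the record puts the active cut at -80%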
# Target sequence (Q9GZU1 whole entry, looked up): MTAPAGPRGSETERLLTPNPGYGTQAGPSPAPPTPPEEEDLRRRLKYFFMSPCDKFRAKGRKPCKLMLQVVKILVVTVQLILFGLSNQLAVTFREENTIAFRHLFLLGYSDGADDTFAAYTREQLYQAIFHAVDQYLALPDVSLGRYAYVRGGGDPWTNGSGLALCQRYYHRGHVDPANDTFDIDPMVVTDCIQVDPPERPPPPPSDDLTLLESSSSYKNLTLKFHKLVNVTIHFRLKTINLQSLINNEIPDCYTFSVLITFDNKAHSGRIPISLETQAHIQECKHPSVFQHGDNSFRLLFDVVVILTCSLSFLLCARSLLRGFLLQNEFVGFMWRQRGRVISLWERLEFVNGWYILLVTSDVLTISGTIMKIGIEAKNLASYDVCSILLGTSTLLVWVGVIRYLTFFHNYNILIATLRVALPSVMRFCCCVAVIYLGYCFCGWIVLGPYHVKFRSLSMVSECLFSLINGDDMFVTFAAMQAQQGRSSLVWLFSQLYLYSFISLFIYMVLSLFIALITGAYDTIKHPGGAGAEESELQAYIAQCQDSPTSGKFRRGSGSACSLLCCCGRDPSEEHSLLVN
#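 Calcium fluorescence in TRPML1-DL cells induced overnight with Tet: a 110 s read after compound pin addition, then a 110 s antagonist read after challenge with 54-4 at 4 uM final (EC80).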
# TRPML1 ag = activates the human TRPML1 channel; Q9GZU1; TRPML1-expressing cells, Ca2+ dye fluorescence, FDSS; host cell line not named in the record; reference of the full effect not given here; activation, % (no concentration beside the values); 0.12% of 410,000 active; AID 624414; in the data active = activation above about 50%; inconclusive = about 30% to 50%; inactive = below about 30%; note: 0% is about no effect; the text of the record puts the active cut at 80%
#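 Cells: TRPML1-DL, 1X Tet inducer, ~16 h at 37 degrees C/5% CO2. Dye: ABD Ca8 no-wash + quencher, 45-90 min RT. Read: 10 s baseline, compound add, 110 s agonist phase; 54-4 EC80 (4uM final), 110 s antagonist phase.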
# ClpP mod = qHTS Assay for Activators of ClpP; ATP-dependent Clp protease proteolytic subunit (Bacillus subtilis (strain 168)), P80244; purified B. subtilis ClpP, FRET peptide cleavage, 20 min; Potency, µM (doses to about 57.5 µM), without a hit: at the highest dose activity change, negative = active; 1.9% of 340,000 active; AID 651965, 2013; active = well fitted falling curve with a large enough effect; inconclusive = small, poorly fitted or top-dose-only effect; inactive = no such curve, though single readings can be large or run the other way; note: potency is the fitted concentration of half-maximal effect; the source files actives as falling curves though it sought activators and does not explain the sign; nearly all actives have a fitted effect of over 65% in size; many hits overshoot -100%
# Target sequence (P80244 whole entry, looked up): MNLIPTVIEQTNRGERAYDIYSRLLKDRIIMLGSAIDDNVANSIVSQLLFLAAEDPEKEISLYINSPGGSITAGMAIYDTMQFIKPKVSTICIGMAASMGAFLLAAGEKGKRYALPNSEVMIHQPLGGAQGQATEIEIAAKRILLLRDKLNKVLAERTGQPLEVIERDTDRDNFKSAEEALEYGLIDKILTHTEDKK
#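 Buffer: 100 mM Tris/HCl pH8, 100 mM KCl, 0.05% low protease BSA, 2.5% glycerol, 0.01% Tween-20. ClpP 10 microg/mL final; 20 min RT; delta FRET normalized to ADEP and DMSO controls.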
# Starred values were filed as active, the others as inactive; ? = inconclusive; / = not tested or not shown. Not all compounds are listed. The share of hits here may be higher or lower than overall.
SMILES,TRPML1 blocker,TRPML1 ag,ClpP mod
COC(=O)C[C@@H]1CC[C@H](NC(=O)c2cnccn2)[C@@H](CO)O1,/,/,1.3%
O=C(C[C@@H]1CC[C@@H]2[C@H](COC[C@H](O)CN2C(=O)Nc2ccc(F)cc2)O1)NCCc1ccncc1,/,/,-4.0%
COc1cccc(OC)c1C(=O)NCCNc1nc2cc(C)cc(C)c2cc1C#N,/,/,-29.1%
COc1ccc(CCNC(=O)c2ccc(CSc3ccc(Cl)cc3)o2)cc1OC,/,/,0.1%
CCCCNC(=O)c1nc(-c2ccncc2)oc1-c1ccc(OC(F)(F)F)cc1,/,/,-1.1%
CC1(C)CC(Cc2ccccc2C(F)(F)F)N(C(=O)OC(C)(C)C)C1 (stereo not given),/,/,1.9%
O=C(C[C@@H]1CC[C@@H]2[C@H](COC[C@H](O)CN2CCC(F)(F)F)O1)NCc1ccc2c(c1)OCO2,/,/,0.0%
COC1=CC(=O)OC(c2cccc(OC)c2)C1 (stereo not given),/,/,1.8%
O=C(Nc1ccc2ccccc2c1)OC1CCS(=O)(=O)C1 (stereo not given),/,/,-5.7%
COC(=O)[C@@]12C[C@@H](CC(=O)NCc3cccc4ccccc34)C(=O)N(Cc3ccco3)C1=CCC(C)(C)C2,/,/,-3.2%
CCOC(=O)[C@]12CCCC=C1N(Cc1ccccc1)C(=O)[C@H](CC(=O)NCc1ccc(OC)c(OC)c1)C2,/,/,1.5%
O=C1c2c(-c3ccc(Br)cc3)noc2CCN1Cc1cn(-c2ccc(Cl)cc2)nn1,/,/,1.6%
COC(=O)C[C@@H]1C=C[C@H](NC(=O)Nc2ccc(OC)cc2)[C@@H](CO)O1,/,/,1.5%
CO[C@@H]1CN(C)C(=O)c2cc(NC(=O)Nc3cc(F)ccc3F)ccc2OC[C@H](C)N(C(=O)c2ccccn2)C[C@@H]1C,/,/,0.2%
COC(=O)C[C@H]1C=C[C@H](NS(=O)(=O)c2cn(C)cn2)[C@@H](CO)O1,/,/,0.7%
Cc1ccc(S(=O)(=O)N2[C@H](CC(=O)c3ccc(Cl)c(Cl)c3)OC[C@@H]2C(C)C)cc1,/,/,-2.7%
CCCCCCCCN1C(=O)[C@H](CC(=O)NCC2CCCCC2)C[C@@]2(C(=O)OCC)CCC=C12,/,/,-1.1%
COC(=O)C1(C(=O)OC)c2cc3c(cc2CN(S(=O)(=O)c2ccc(C)cc2)C1CC(C)=O)OCO3 (stereo not given),/,/,-11.4%
CC(C)(C)NC(=O)C(c1ccc(C(F)(F)F)cc1)n1c(=O)c(-c2cc3ccccc3[nH]2)nc2ccccc21 (stereo not given),/,/,-5.1%
COc1ccc(NC(=O)C(C2CC2)n2c(=O)c(-c3cc4ccccc4[nH]3)nc3ccccc32)cc1 (stereo not given),/,/,-14.4%
Cc1cccc(C)c1NC(=O)C(c1ccccc1F)n1c(=O)c(-c2ccco2)nc2ccccc21 (stereo not given),/,/,4.7%
O=C1NC[C@@H]2CCCN2C1=O,/,/,-2.6%
Cc1csc(-c2nc3ccccc3n2C(C(=O)Nc2c(C)cccc2C)C2CC2)c1 (stereo not given),/,/,4.8%
CCC(CC)C(C(=O)NCc1ccccc1)N1CCN(c2cccc(C)c2C)CC1 (stereo not given),/,/,1.8%
Cc1ccc(S(=O)(=O)N2[C@@H](CCO)OC[C@H]2C(C)C)cc1,/,/,-1.0%
Nc1ccc(CNC(=O)c2cc3cc(Cl)ccc3nc2N)cc1,/,/,-18.8%
O=C(C[C@H]1C=C[C@@H](NC(=O)c2ccncc2)[C@@H](CO)O1)NCC1CC1,/,/,-1.0%
CCCCNC(=O)c1nc(C2CCN(S(=O)(=O)c3ccc(OC(F)(F)F)cc3)CC2)oc1-c1ccccc1,/,/,?
CCOC(=O)[C@]12CCCC=C1N(Cc1ccccc1)C(=O)[C@H](CC(=O)N1CCOCC1)C2,/,/,0.1%
COC(=O)c1ccccc1C(=O)c1c(C)cc(C)cc1C,/,/,-0.9%
O=C(Nc1ccc(F)cc1)C(c1ccncc1)N1CCN(C(=O)c2ccco2)CC1 (stereo not given),/,/,2.2%
O=C(NCc1ccccc1)C(c1cc2ccccc2o1)n1c(=O)c(-c2ccccc2)nc2ccccc21 (stereo not given),/,/,-5.3%
COC(=O)[C@@]12C[C@@H](CC(=O)NCc3cccc4ccccc34)C(=O)N(Cc3ccccc3)C1=CCC(C)(C)C2,/,/,-6.4%
CC(C)(C)NC(=O)C(c1ccnc2ccccc12)n1c(=O)c(-c2ccco2)nc2ccccc21 (stereo not given),/,/,4.1%
C#CCNC(=O)C[C@@H]1C[C@@]2(C(=O)OC)CC(C)(C)CC=C2N(Cc2ccco2)C1=O,/,/,1.9%
CC(C)CN1C(=O)CN(S(C)(=O)=O)CC1(C)C(=O)NC(C)C (stereo not given),/,/,-0.8%
CC1(C(=O)Nc2ccc3c(c2)OCCO3)CN(S(C)(=O)=O)CC(=O)N1CCCN1CCOCC1 (stereo not given),/,/,-1.1%
CC(C(=O)NC(C)(C)C)n1c(-c2ccc3c(c2)OCO3)nc2ccccc21 (stereo not given),/,/,4.4%
CC1=C(C(=O)N(C(C)C)C(C)C)CC(CC(=O)NCC2CCCCC2)C(=O)N1Cc1ccc(C(C)(C)C)cc1 (stereo not given),/,/,1.8%
CO[C@H]1CN(C)C(=O)c2ccc(NC(=O)C3CCC3)cc2OC[C@H](C)N(Cc2ccccn2)C[C@@H]1C,/,/,0.8%
C=CCC(NC(=O)N(C)C)(C(C)=O)C(=O)OC (stereo not given),/,/,-0.7%
CCC(=O)N[C@H]1C=C[C@H](CC(=O)OC)O[C@@H]1CO,/,/,1.2%
Cc1cccc(-c2ccc([N+](=O)[O-])cc2CN2CCN(c3ncc(Cc4ccccc4)cn3)CC2)c1,/,/,-1.4%
CCOC(=O)[C@]12CCCC=C1N(Cc1ccccc1)C(=O)[C@H](CC(=O)N1CCCCCC1)C2,/,/,-1.4%
Cc1cccc(C)c1NC(=O)C1(C)CSCC(=O)N1CCc1ccccc1F (stereo not given),/,/,1.2%
COC(=O)[C@@]12C[C@@H](CC(=O)N3CCSCC3)C(=O)N(CCc3ccc(OC)c(OC)c3)C1=CCC(C)(C)C2,/,/,0.4%
Nc1sccc1C(=O)NCc1ccccc1,/,/,?
COc1cccc(Cn2c(C(C)n3c(C)nc4ccccc43)nc3ccccc32)c1 (stereo not given),/,/,0.7%
Cc1cc2c(cc1C)-n1nnnc1C(N(Cc1ccccc1)Cc1ccccc1)C(=O)N2 (stereo not given),/,/,-7.7%
CC(=O)N1CCC(C(=O)N2c3ccccc3N=C(c3ccc4c(c3)OCO4)C2C(=O)Nc2c(C)cccc2C)CC1 (stereo not given),/,/,-11.7%
CC(=O)N1CCN(C(C(=O)Nc2c(C)cccc2C)c2ccccc2OC(F)(F)F)CC1 (stereo not given),/,/,0.4%
CC(C)CN1C(=O)CSCC1(C)C(=O)Nc1ccc2c(c1)OCCO2 (stereo not given),/,/,-1.6%
COC(=O)[C@]12CCCCC=C1N(Cc1ccc3c(c1)OCO3)C(=O)[C@H](CC(=O)NCCCN1CCCC1=O)C2,/,/,0.3%
COc1ccc(S(=O)(=O)N2C[C@@H](O)COC[C@@H]3O[C@H](CC(=O)NCCCN4CCOCC4)CC[C@H]32)cc1,/,/,-2.2%
COc1ccc(NC(=O)C(C2CC2)n2c(=O)c(-c3ccccc3)nc3ccccc32)cc1 (stereo not given),/,/,-11.4%
CCOC(=O)C1C(C)C(C(C)(C)C)N(S(=O)(=O)c2ccc(C)cc2)C1c1ccccc1 (stereo not given),/,/,0.7%
CC1(C(=O)Nc2ccc3c(c2)OCCO3)CN(S(C)(=O)=O)CC(=O)N1Cc1cccs1 (stereo not given),/,/,-2.2%
CC1(C(=O)Nc2ccc3c(c2)OCCO3)CN(S(C)(=O)=O)CC(=O)N1CC(F)(F)F (stereo not given),/,/,0.8%
Cc1cccc(N2CCN(C(C(=O)NCc3ccccc3)c3ccc(C(F)(F)F)cc3)CC2)c1C (stereo not given),/,/,-4.8%
Cc1cccc(C)c1NC(=O)C(C1CC1)n1c(=O)c(-c2ccccc2)nc2ccccc21 (stereo not given),/,/,4.3%

# Laid out differently: results already given.
structure | TRPML1 blocker | TRPML1 ag | ClpP mod
CC(C(=O)NC(C)(C)C)n1c(-c2ccc3c(c2)OCO3)nc2ccccc21 (stereo not given) | / | / | 4.4%
CC1=C(C(=O)N(C(C)C)C(C)C)CC(CC(=O)NCC2CCCCC2)C(=O)N1Cc1ccc(C(C)(C)C)cc1 (stereo not given) | / | / | 1.8%
CO[C@H]1CN(C)C(=O)c2ccc(NC(=O)C3CCC3)cc2OC[C@H](C)N(Cc2ccccn2)C[C@@H]1C | / | / | 0.8%
C=CCC(NC(=O)N(C)C)(C(C)=O)C(=O)OC (stereo not given) | / | / | -0.7%
CCC(=O)N[C@H]1C=C[C@H](CC(=O)OC)O[C@@H]1CO | / | / | 1.2%
Cc1cccc(-c2ccc([N+](=O)[O-])cc2CN2CCN(c3ncc(Cc4ccccc4)cn3)CC2)c1 | / | / | -1.4%
CCOC(=O)[C@]12CCCC=C1N(Cc1ccccc1)C(=O)[C@H](CC(=O)N1CCCCCC1)C2 | / | / | -1.4%
Cc1cccc(C)c1NC(=O)C1(C)CSCC(=O)N1CCc1ccccc1F (stereo not given) | / | / | 1.2%
COC(=O)[C@@]12C[C@@H](CC(=O)N3CCSCC3)C(=O)N(CCc3ccc(OC)c(OC)c3)C1=CCC(C)(C)C2 | / | / | 0.4%
Nc1sccc1C(=O)NCc1ccccc1 | / | / | ?
COc1cccc(Cn2c(C(C)n3c(C)nc4ccccc43)nc3ccccc32)c1 (stereo not given) | / | / | 0.7%
Cc1cc2c(cc1C)-n1nnnc1C(N(Cc1ccccc1)Cc1ccccc1)C(=O)N2 (stereo not given) | / | / | -7.7%
CC(=O)N1CCC(C(=O)N2c3ccccc3N=C(c3ccc4c(c3)OCO4)C2C(=O)Nc2c(C)cccc2C)CC1 (stereo not given) | / | / | -11.7%
CC(=O)N1CCN(C(C(=O)Nc2c(C)cccc2C)c2ccccc2OC(F)(F)F)CC1 (stereo not given) | / | / | 0.4%
CC(C)CN1C(=O)CSCC1(C)C(=O)Nc1ccc2c(c1)OCCO2 (stereo not given) | / | / | -1.6%
COC(=O)[C@]12CCCCC=C1N(Cc1ccc3c(c1)OCO3)C(=O)[C@H](CC(=O)NCCCN1CCCC1=O)C2 | / | / | 0.3%
COc1ccc(S(=O)(=O)N2C[C@@H](O)COC[C@@H]3O[C@H](CC(=O)NCCCN4CCOCC4)CC[C@H]32)cc1 | / | / | -2.2%
COc1ccc(NC(=O)C(C2CC2)n2c(=O)c(-c3ccccc3)nc3ccccc32)cc1 (stereo not given) | / | / | -11.4%
CCOC(=O)C1C(C)C(C(C)(C)C)N(S(=O)(=O)c2ccc(C)cc2)C1c1ccccc1 (stereo not given) | / | / | 0.7%
CC1(C(=O)Nc2ccc3c(c2)OCCO3)CN(S(C)(=O)=O)CC(=O)N1Cc1cccs1 (stereo not given) | / | / | -2.2%

# More compounds.
SMILES,TRPML1 blocker,TRPML1 ag,ClpP mod
Cc1ccc(C)c(N2CCN(C3C(=O)Nc4ccccc4-n4nnnc43)CC2)c1 (stereo not given),/,/,-4.2%
O=C(Nc1ccc2c(c1)OCCO2)C(c1ccccc1)n1c(=O)c(-c2ccco2)nc2ccccc21 (stereo not given),/,/,-13.2%
O=C(Nc1cccc2cccnc12)c1c(Cl)cc(Cl)cc1Cl,14.5,1.6,/
O=S(=O)(c1ccc(F)cc1)N1CCN(c2nc(-c3ccc(F)cc3)nc3cc(Cl)ccc23)CC1,19.5,1.3,/
Cc1ccc(S(=O)(=O)Nc2cccc3ccccc23)cc1,-4.0,3.6,/
Cc1ccc(Cn2cnc3c(cnn3C(C)(C)C)c2=O)c(F)c1,38.8,1.1,/
CC(C)(C)n1ncc2c(=O)n(Cc3cccc(C(F)(F)F)c3Cl)cnc21,2.2,2.3,/
CN(C)/[N+]([O-])=N/Oc1ccc([N+](=O)[O-])cc1[N+](=O)[O-],-13.4,1.4,/
CC(C)(C)n1ncc2c(=O)n(Cc3ccccc3C(F)(F)F)cnc21,-4.6,4.5,/
COc1ccc(Br)cc1C1NC(c2ccc3c(c2)OCO3)=CC(c2cc(Cl)ccc2O)N1 (stereo not given),-22.0,1.4,/
CC(C)(C)n1ncc2c(=O)n(Cc3ccc(Cl)c(F)c3)cnc21,4.8,0.8,/
CC(C)(C)n1ncc2c(=O)n(Cc3cccc(-c4cccs4)c3)cnc21,23.1,0.6,/
CC(C)(C)n1ncc2c(=O)n(Cc3ccc(F)c(C(F)(F)F)c3)cnc21,3.7,1.4,/
